Screening results from PubChem.
Beta apoptosis = inhibitors of cytokine-induced beta cell apoptosis, primary screen, luminescence. INS-1E cytokine-induced death, ATP luminescence, 48 h; percent of positive-control rescue, neutral wells zero. AID 435005, 2010. actives 0.8% (n = 300,000). protection from apoptosis, % (no concentration beside the values);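 active = all replicates at 75% or more, or half of them and the mean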;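 note: 0% = cytokine-treated negative control wells and 100% = positive control rescue; higher means more ATP so stronger rescue from cytokine killing; wells of about 40 µL received 100 nL stock; the first replicate is given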
T cruzi repl = inhibitors of intracellular T. cruzi growth, primary screen, luminescence, NIH3T3 host cells; T. cruzi beta-gal in NIH3T3, 90 h; inhibition, % (concentration not given with the values); actives 1.4% (n = 300,000); AID 1885, 2009;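 active = mean inhibition across valid replicates above about 55%, limit read from the data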;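 note: signal also drops with host cell toxicity which is not excluded here; 0% = plate median of DMSO wells and 100% = zero luminescence signal; higher percent means less beta-gal luminescence so fewer parasites; stock transfer was 50 nL into about 50 µL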
rRNA inh HTS = reduced GFP signal of wild-type E. coli, primary screen, bacterial rRNA inhibitor project, GFP/RFP fluorescence, OD600, single point. E. coli WT GFP vs humanized-ribosome RFP mutants, 24 h; stronger effect = lower value; DMSO median 0, no signal -100. GFP signal change (wild-type ribosome), % (concentration not given with the values). actives 1.6% (n = 350,000). AID 720706, 2013;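 active = significant combined selectivity score with lowered wild-type GFP, culture density cut under 30%, mutant RFP and density less affected; inactive = any of these conditions unmet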; note: one replicate is shown; some compounds called inactive have numbers as strong as hits
Beta2AR agonist = beta2AR agonists driving receptor internalization, primary screen, cell-based, FAP fluorogen, flow cytometry; response, % (no concentration beside the values); AID 504454, 2011; Am2.2-beta2AR cells; reference of the scale not given here; actives 0.43% (n = 340,000); Beta-2 adrenergic receptor (Homo sapiens), P07550;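 active = response above a set limit, near 3 SD of response in nonfluorescent compounds, cut at about 42% in these data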;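 note: stock transfer was 100 nL into about 11 µL; a reference agonist was the positive control; negative values mostly stem from fluorescent compounds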
Target sequence (P07550 whole entry, looked up): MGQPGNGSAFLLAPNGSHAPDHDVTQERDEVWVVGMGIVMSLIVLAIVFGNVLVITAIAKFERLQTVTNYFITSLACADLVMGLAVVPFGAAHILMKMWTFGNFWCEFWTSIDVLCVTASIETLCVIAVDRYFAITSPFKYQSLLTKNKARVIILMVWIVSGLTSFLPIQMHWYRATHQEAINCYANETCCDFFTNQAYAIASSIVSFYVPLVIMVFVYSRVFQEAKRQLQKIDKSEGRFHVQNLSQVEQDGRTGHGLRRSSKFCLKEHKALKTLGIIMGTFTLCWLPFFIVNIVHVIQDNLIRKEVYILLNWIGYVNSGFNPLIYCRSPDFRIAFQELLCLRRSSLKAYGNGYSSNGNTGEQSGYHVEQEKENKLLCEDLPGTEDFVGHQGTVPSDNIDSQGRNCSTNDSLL
Bfl-1 A1 inh = caspase 3/7 activation in MEF A1-2A-BIM cells, primary screen, A1 inhibitor project, cell-based, luminescence, HTS. Caspase-Glo 3/7 luminescence, 3 h; percent of clofoctol response, vehicle zero. AID 2462, 2010. actives 0.066% (n = 330,000). caspase activation, % (no concentration beside the values);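 active = over half of replicate activation scores above 10%, or exactly half above 10 with the replicate mean above 10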;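 note: wells of about 30 µL received 50 nL stock; many hits fall short of the cut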
LANA-H2A inh = blockers of LANA interaction with H2A/H2B – biochemical, FP readout, HTS, primary screen | cell-free LANA-H2A/H2B peptide, fluorescence polarization | Protein LANA1 (Human herpesvirus 8 type P (isolate GK18)), Q9QR71 | AID 2629, 2010 | actives 0.6% (n = 320,000) | inhibition, % (test concentration not listed); in the data active = inhibition mostly above about 10%, no sharp cut-off; inactive = mostly below about 6.7%;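 note: stock transfer was 7.5 nL into about 10 µL; 0% = median of vehicle wells and 100% = median of positive control wells; one replicate is shown; the record names a cut of 25% in any replicate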
Calb FLC = C. albicans growth inhibition with fluconazole, primary screen, CaCi-2 strain, Alamar Blue fluorescence; actives 0.57% (n = 300,000); growth inhibition, % (no concentration beside the values); C. albicans CaCi-2 (fluconazole-resistant clinical isolate) + fluconazole, 48 h;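 active = most replicates above 75%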;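 note: all wells also contain fluconazole at 8 µg/ml as a sub-toxic cotreatment; 0% = median of DMSO wells and 100% = median of geldanamycin control wells; wells of about 8 µL received 7.5 nL stock; the first replicate is given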
ALR H2O2 inh = inhibitors of human ALR sulfhydryl oxidase, primary screen, biochemical, H2O2 detection, HRP-luminol luminescence, single point; purified ALR, DTT oxidation; inhibition, % (no concentration beside the values); actives 3.8% (n = 290,000); AID 485317, 2010;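 active = mean and each replicate at 75% or more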;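 note: stock transfer was 7.5 nL into about 7.5 µL; 0% = neutral wells and 100% = wells with inactivated enzyme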
Target sequence (P55789 whole entry, looked up): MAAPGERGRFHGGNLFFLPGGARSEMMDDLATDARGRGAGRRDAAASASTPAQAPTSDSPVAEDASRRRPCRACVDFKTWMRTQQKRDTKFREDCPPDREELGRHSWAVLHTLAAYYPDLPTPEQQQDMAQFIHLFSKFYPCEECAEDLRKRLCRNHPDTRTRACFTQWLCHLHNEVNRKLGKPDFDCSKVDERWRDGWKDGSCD
rRNA inh HTS OD600 = also measured in rRNA inh HTS; calls as there; OD600 change, %; measured here: OD600 growth;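 optical density of the mix in the first replicate; 0 = DMSO median and -100 = no signal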
rRNA inh HTS RFP = also measured in rRNA inh HTS; calls as there; RFP signal change, %; measured here: RFP humanized mutant strains;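 first replicate; 0 = DMSO median and -100 = no signal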
Numbers without * were called inactive; & = joins results of further samples. Only part of the results is shown. The share of hits here may be higher or lower than overall.

How did Cc1ccc(C(=O)C2=C(O)C(=O)N(Cc3cccnc3)C2c2cccc([N+](=O)[O-])c2)o1 (stereo unspecified) do in these assays?
Beta apoptosis: -1; T cruzi repl: -16; rRNA inh HTS: -3; Beta2AR agonist: 3; Bfl-1 A1 inh: -1.4; LANA-H2A inh: -5.9; Calb FLC: 0; ALR H2O2 inh: 10; rRNA inh HTS OD600: 3; rRNA inh HTS RFP: -1.8

How did Cc1ccc(Nc2c(-c3ccccc3O)nc3ncccn23)cc1 do in these assays?
Beta apoptosis: 0; T cruzi repl: 14; rRNA inh HTS: -10; Beta2AR agonist: 0; Bfl-1 A1 inh: 0.8; LANA-H2A inh: 3.2; Calb FLC: 6; ALR H2O2 inh: 98*; rRNA inh HTS OD600: -8; rRNA inh HTS RFP: -15

How did Cn1ccnc1C(=O)c1cc(SCC(=O)NCc2ccccc2)nc2ccccc12 do in these assays?
Beta apoptosis: -7; T cruzi repl: 9; rRNA inh HTS: 6; Beta2AR agonist: -4; Bfl-1 A1 inh: 0.2; LANA-H2A inh: 1.5; Calb FLC: 10; ALR H2O2 inh: -28; rRNA inh HTS OD600: 8; rRNA inh HTS RFP: 0.6

Results for COc1ccc(/C=N/N2C(=N)SCC2=O)cc1 ?
Beta apoptosis: 1; T cruzi repl: -7; rRNA inh HTS: 3; Beta2AR agonist: -4; Bfl-1 A1 inh: -1.5; LANA-H2A inh: 2.4; Calb FLC: -3; ALR H2O2 inh: -15; rRNA inh HTS OD600: 6; rRNA inh HTS RFP: -5.5

What do the screens show for `CC(C)c1ccc(NC2CCCN(C(=O)CCN3Cc4ccccc4C3=O)C2)cc1` (stereo unspecified)?
Beta apoptosis: 5; T cruzi repl: 17; rRNA inh HTS: -7; Beta2AR agonist: -8; Bfl-1 A1 inh: -0.5; LANA-H2A inh: 2.4; Calb FLC: -1; ALR H2O2 inh: 99*; rRNA inh HTS OD600: -21; rRNA inh HTS RFP: -0.9

How did COc1cc(N)c(Cl)cc1C(=O)OCC(=O)c1ccc2c(c1)NC(=O)CO2 do in these assays?
Beta apoptosis: 1; T cruzi repl: -2; rRNA inh HTS: 0; Beta2AR agonist: 0; Bfl-1 A1 inh: -0.5; LANA-H2A inh: 5.8; ALR H2O2 inh: 2; rRNA inh HTS OD600: -21; rRNA inh HTS RFP: 0.6

What do the screens show for `O=C(CN(CC1CCCO1)C(=O)CCC(=O)Nc1nccs1)NCc1ccc2c(c1)OCO2` (stereo unspecified)?
Beta apoptosis: -7; T cruzi repl: -19; Beta2AR agonist: -9; Bfl-1 A1 inh: -1.5; LANA-H2A inh: 2.7; Calb FLC: -2; ALR H2O2 inh: -15

How did COc1ccccc1CNC(=O)COC(=O)c1ccc(C)c(S(=O)(=O)N2CCOCC2)c1 do in these assays?
Beta apoptosis: -2; T cruzi repl: 5; rRNA inh HTS: 8; Beta2AR agonist: 11; Bfl-1 A1 inh: -0.8; LANA-H2A inh: 8.2; ALR H2O2 inh: 0; rRNA inh HTS OD600: 9; rRNA inh HTS RFP: 0.2

What do the screens show for `CN1CCN(S(=O)(=O)c2cccc(C(=O)Oc3ccc(Br)cc3F)c2)CC1`?
Beta apoptosis: -6; T cruzi repl: -6; rRNA inh HTS: -3; Beta2AR agonist: 18; Bfl-1 A1 inh: -1.7; LANA-H2A inh: 0.3; Calb FLC: -3; ALR H2O2 inh: 24; rRNA inh HTS OD600: 8; rRNA inh HTS RFP: 2.2

Results for Cc1ccc(S(=O)(=O)N2CCCCC2)cc1NC(=O)C1CCCO1 (stereo unspecified) ?
T cruzi repl: -7; rRNA inh HTS: 8; Beta2AR agonist: -6; Bfl-1 A1 inh: 0.5; LANA-H2A inh: -5.3; Calb FLC: -5; ALR H2O2 inh: -2; rRNA inh HTS OD600: -8; rRNA inh HTS RFP: -0.3

Results for Cn1ncc(Cl)c1C(=O)Nc1nc2ccc(Cl)cc2s1 ?
Beta apoptosis: 27; T cruzi repl: -25; rRNA inh HTS: 4; Beta2AR agonist: -6; Bfl-1 A1 inh: 0.0; LANA-H2A inh: -1.4; Calb FLC: -20; ALR H2O2 inh: -1; rRNA inh HTS OD600: -1; rRNA inh HTS RFP: 2.9

Results for CN(N=Nc1cccc([N+](=O)[O-])c1)c1cccc([N+](=O)[O-])c1 ?
Beta apoptosis: -2; T cruzi repl: 1; rRNA inh HTS: 9; Beta2AR agonist: -4; Bfl-1 A1 inh: 0.0; LANA-H2A inh: -1.8; Calb FLC: 4; ALR H2O2 inh: -4; rRNA inh HTS OD600: 9; rRNA inh HTS RFP: -0.6

How did Cc1ccc(CN2CCCC(C(=O)N3CCCC3)C2)cc1 (stereo unspecified) do in these assays?
Beta apoptosis: 1; T cruzi repl: 39; rRNA inh HTS: 14; Beta2AR agonist: -3; Bfl-1 A1 inh: 0.4; LANA-H2A inh: 2.0; Calb FLC: -6; ALR H2O2 inh: -7; rRNA inh HTS OD600: 8; rRNA inh HTS RFP: 0.4

What do the screens show for `CCC(C)C(NC(=O)OCc1ccccc1)C(=O)OCN1C(=O)c2ccccc2C1=O` (stereo unspecified)?
Beta apoptosis: -1; T cruzi repl: 4; Beta2AR agonist: -7; Bfl-1 A1 inh: -0.3; LANA-H2A inh: -2.8; Calb FLC: -5

Results for CCC[C@@H](NS(=O)(=O)c1ccc(C)cc1)C(=O)Oc1ccc2c3c(c(=O)oc2c1)CCC3 ?
Beta apoptosis: 4; T cruzi repl: -17; Beta2AR agonist: -7; Bfl-1 A1 inh: 1.4; LANA-H2A inh: 0.2; Calb FLC: 9; ALR H2O2 inh: -6

Results for COc1ccc2c(c1OC)C(=O)N(c1ccc(C)cc1)C2 ?
Beta apoptosis: -7; T cruzi repl: 8; rRNA inh HTS: -9; Beta2AR agonist: -1; Bfl-1 A1 inh: -3.2; LANA-H2A inh: -1.3; Calb FLC: 0; ALR H2O2 inh: -1; rRNA inh HTS OD600: -7; rRNA inh HTS RFP: -2.5

What do the screens show for `COc1cc(NC(=O)c2cnc(N)o2)cc(C(=O)Nc2cccc(C(F)(F)F)c2)c1`?
Beta apoptosis: 2; T cruzi repl: -5; rRNA inh HTS: -61&-56; Beta2AR agonist: 0; Bfl-1 A1 inh: 1.8; LANA-H2A inh: -3.7; Calb FLC: -1; ALR H2O2 inh: -15; rRNA inh HTS OD600: -76&-81; rRNA inh HTS RFP: -15&-28

Results for COc1ccc(C2=C(C=C(C#N)C#N)C(c3ccccc3C)c3ccccc3O2)cc1OC (stereo unspecified) ?
Beta apoptosis: 10; T cruzi repl: 24; rRNA inh HTS: 3; Beta2AR agonist: 7; Bfl-1 A1 inh: 0.6; LANA-H2A inh: 3.7; Calb FLC: 3; ALR H2O2 inh: 0; rRNA inh HTS OD600: 3; rRNA inh HTS RFP: -2.3

What do the screens show for `COc1ccccc1N1CCN(C(=O)c2cc(=O)c3ccc(C)cc3o2)CC1`?
Beta apoptosis: -8; T cruzi repl: 4; rRNA inh HTS: -8; Beta2AR agonist: 5; Bfl-1 A1 inh: -0.3; LANA-H2A inh: -1.1; Calb FLC: -2; ALR H2O2 inh: 99*; rRNA inh HTS OD600: -7; rRNA inh HTS RFP: 1.0

Results for O=C(NN=C1C2CC3CC(C2)CC1C3)c1ccccc1O ?
Beta apoptosis: -4; T cruzi repl: 2; rRNA inh HTS: 12; Beta2AR agonist: -10; Bfl-1 A1 inh: -0.3; LANA-H2A inh: 3.2; Calb FLC: 6; ALR H2O2 inh: -1; rRNA inh HTS OD600: 3; rRNA inh HTS RFP: -0.8

What do the screens show for `CC(=O)Oc1cccc(/C=N\NC(=O)C(=O)N/N=C/c2cccc(OC(C)=O)c2)c1`?
Beta apoptosis: -1; rRNA inh HTS: 21; Beta2AR agonist: 9; Bfl-1 A1 inh: -0.5; LANA-H2A inh: 3.4; ALR H2O2 inh: 9; rRNA inh HTS OD600: 9; rRNA inh HTS RFP: 0.1

What do the screens show for `COc1ccccc1/C=C/C(=O)OC(C)CN1CCCCC1` (stereo unspecified)?
Beta apoptosis: 3; T cruzi repl: -5; rRNA inh HTS: 0; Beta2AR agonist: -3; Bfl-1 A1 inh: 0.0; LANA-H2A inh: -0.8; Calb FLC: -9; ALR H2O2 inh: 2; rRNA inh HTS OD600: 1; rRNA inh HTS RFP: 0.8

Results for CCOC(=O)C1C(=O)CC(O)(c2ccccc2)CC1c1ccccc1 (stereo unspecified) ?
Beta apoptosis: 8; T cruzi repl: -5; Beta2AR agonist: -5; Bfl-1 A1 inh: 1.0; LANA-H2A inh: -4.0; Calb FLC: 3; ALR H2O2 inh: -2

What do the screens show for `CCOc1ccc(CCNC(=O)COC(=O)Cc2c[nH]c3ccccc23)cc1OCC`?
Beta apoptosis: -13; T cruzi repl: 0; rRNA inh HTS: -4; Beta2AR agonist: 10; Bfl-1 A1 inh: 1.6; LANA-H2A inh: -12; Calb FLC: -1; ALR H2O2 inh: -3; rRNA inh HTS OD600: -5; rRNA inh HTS RFP: 3.7

Results for CCN(CC)S(=O)(=O)c1ccc(N2CC(C(=O)NCCC3=CCCCC3)CC2=O)cc1 (stereo unspecified) ?
Beta apoptosis: 5; Beta2AR agonist: 7; Bfl-1 A1 inh: 1.7; LANA-H2A inh: -0.4; ALR H2O2 inh: 0

How did COC(=O)[C@]1(C)N[C@H](CN(C)C(=O)Nc2ccccc2)[C@@H]2C(=O)N(C)C(=O)[C@@H]21 do in these assays?
Beta apoptosis: -6; rRNA inh HTS: 9; Beta2AR agonist: -5; Bfl-1 A1 inh: -0.3; LANA-H2A inh: -0.3; rRNA inh HTS OD600: 14; rRNA inh HTS RFP: -0.9

Results for C=CCSc1nsc(NC(=O)Nc2ccc(F)cc2)n1 ?
Beta apoptosis: 111*; T cruzi repl: 35; rRNA inh HTS: -42; Beta2AR agonist: 20; Bfl-1 A1 inh: -0.7; LANA-H2A inh: -2.3; Calb FLC: 2; ALR H2O2 inh: -1; rRNA inh HTS OD600: -79; rRNA inh HTS RFP: -10

What do the screens show for `COc1ccc(S(=O)(=O)N2CCOCC2)cc1NC(=O)[C@@H]1CCCN1C(=O)c1cccs1`?
Beta apoptosis: -7; T cruzi repl: 12; rRNA inh HTS: 7; Beta2AR agonist: -2; Bfl-1 A1 inh: 0.5; LANA-H2A inh: 9.5; Calb FLC: -17; ALR H2O2 inh: 14; rRNA inh HTS OD600: 2; rRNA inh HTS RFP: -1.8
